Source: PubChem
PINK1 expr mod – modulators of PINK1 expression; PINK1 immunofluorescence, high-content cytometry, 24 h; Potency, µM (top dose mostly 76.6 µM), for the others: top-dose activation (PINK1 increase), usual class: activators; 410,000 tested, 0.2% active; AID 624263; active = well fitted activation curve with a large enough effect; inconclusive = small, poorly fitted or top-dose-only effect; inactive = flat fitted curve, though single readings scatter; cell line not stated here;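 note: potency is the fitted concentration of half-maximal effect; % of control where 0% means no effect; nearly all actives have a fitted effect of over 65% in size; a mitochondrial uncoupler was the plate control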
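Stable cell line, 250 cells/well, 12 h attachment; compounds pinned at 5 concentrations, 24 h; CCCP control. Fixed with nuclear dye, primary antibodies 12 h at 10 degrees C, secondary plus cell stain; laser-scanning cytometer read.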
CtBP-E1A blk – blocks the CtBP interaction with E1A; AID 651724; 340,000 tested, 0.49% active; AlphaScreen GST-E1A/His-CtBP binding, 1536-well; stronger effect = lower value; control for the full effect not named in the record; activity change, % (no concentration beside the values); in the data active means activity change below about -65%; inconclusive means about -30% to -65%; inactive means above about -30%; note: % is set by controls: 0 for no effect and ±100 for the full control effect; compound concentration not given in the record
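GST-E1A and His-tagged CtBP (125 nM each as 5X stock) were preincubated with pin-transferred compound for 2 h at 37 °C in the dark, then glutathione donor and nickel acceptor beads were added for 1 h before AlphaScreen reading.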
Six1-Eya2 blk – inhibitors of human Six1/Eya2 interaction; AlphaScreen GST-Six1/His-Eya2 binding, biochemical; stronger effect = lower value; control for the full effect not named in the record; activity change, % (concentration not given with the values); 360,000 tested, 0.56% active; AID 651725; in the data active = activity change below about -65%; inconclusive = about -30% to -65%; inactive = above about -30%; note: % is set by controls: 0 for no effect and ±100 for the full control effect
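Homogeneous AlphaScreen proximity assay pairing GST-Six1 with His-tagged Eya2 (added as 5X mix: 250 nM and 500 nM) in 50 mM Tris pH 8.0, 300 mM NaCl, 1 mM TCEP. Glutathione donor and nickel acceptor beads; 1 h, 37 °C, dark.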
D2 potentiator – potentiates the human D2 dopamine receptor allosterically | P14416 | DiscoveRx D2 beta-arrestin cells, luminescence, 90 min; 100% = 57 uM dopamine signal | potentiation, % (no concentration beside the values) | 360,000 tested, 0.23% active | AID 624464; active = potentiation of 50% or more; inconclusive = 30% to 50%; inactive = 30% or less;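 note: compound concentration not given in the record; tested on top of an EC20 dose of dopamine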
Target sequence (P14416 whole entry, looked up): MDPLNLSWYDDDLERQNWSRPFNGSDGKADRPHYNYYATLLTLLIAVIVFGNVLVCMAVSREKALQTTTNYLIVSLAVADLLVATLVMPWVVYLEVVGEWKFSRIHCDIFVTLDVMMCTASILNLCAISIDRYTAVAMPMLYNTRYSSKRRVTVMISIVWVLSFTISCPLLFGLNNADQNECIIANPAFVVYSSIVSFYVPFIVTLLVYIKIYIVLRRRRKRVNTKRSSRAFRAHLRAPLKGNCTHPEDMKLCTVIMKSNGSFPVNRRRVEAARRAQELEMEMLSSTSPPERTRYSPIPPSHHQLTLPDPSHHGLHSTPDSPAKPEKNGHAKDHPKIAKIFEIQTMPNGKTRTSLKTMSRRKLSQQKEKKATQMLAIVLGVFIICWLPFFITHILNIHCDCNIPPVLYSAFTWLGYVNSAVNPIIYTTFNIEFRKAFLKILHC
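D2 cells co-treated with compound plus 50 nM dopamine (EC20) for 90 min at 37 deg C to detect potentiation. Beta-arrestin recruitment was read as enzyme-fragment luminescence after 1 h at ambient temperature. Full response was set by 57 uM dopamine.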
TRPML1 ag – activates the human TRPML1 channel. Q9GZU1. TRPML1-expressing cells, Ca2+ dye fluorescence, FDSS; host cell line not named in the record; reference of the full effect not given here. activation, % (no concentration beside the values). 410,000 tested, 0.12% active. AID 624414; in the data active = activation above about 50%; inconclusive = about 30% to 50%; inactive = below about 30%; note: 0% is about no effect; the text of the record puts the active cut at 80%
Target sequence (Q9GZU1 whole entry, looked up): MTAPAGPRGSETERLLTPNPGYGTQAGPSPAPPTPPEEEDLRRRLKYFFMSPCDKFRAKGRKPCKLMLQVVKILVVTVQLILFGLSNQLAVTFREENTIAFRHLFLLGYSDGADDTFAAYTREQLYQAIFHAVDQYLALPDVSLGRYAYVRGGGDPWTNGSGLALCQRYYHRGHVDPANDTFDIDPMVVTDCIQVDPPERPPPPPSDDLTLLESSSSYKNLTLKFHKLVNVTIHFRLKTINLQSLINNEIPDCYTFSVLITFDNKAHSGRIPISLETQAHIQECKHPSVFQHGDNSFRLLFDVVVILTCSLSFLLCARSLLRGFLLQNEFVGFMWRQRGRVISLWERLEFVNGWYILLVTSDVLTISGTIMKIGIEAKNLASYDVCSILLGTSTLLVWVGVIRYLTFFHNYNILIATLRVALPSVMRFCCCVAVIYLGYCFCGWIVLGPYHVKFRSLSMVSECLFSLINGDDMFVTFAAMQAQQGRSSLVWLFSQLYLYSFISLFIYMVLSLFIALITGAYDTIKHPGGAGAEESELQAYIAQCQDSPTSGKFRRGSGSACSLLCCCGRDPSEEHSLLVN
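Calcium fluorescence on an FDSS kinetic reader gave the read-out. Tet-induced TRPML1-DL cells were plated overnight, dye-loaded (Ca8 with quencher, 45-90 min, room temperature, dark), then read 110 s after compound addition, and again 110 s after 4uM final 54-4 (EC80).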
D2 ag – activates the human D2 dopamine receptor | P14416 | DiscoveRx PathHunter D2 beta-arrestin, luminescence, 90 min; 100% = 57 uM dopamine signal | activation, % (test concentration not listed) | 360,000 tested, 0.084% active | AID 624465; in the data active = activation above about 40%; inconclusive = about 15% to 40%; inactive = below about 15%; note: compound concentration not given in the record; the text of the record calls up to 30% inactive
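Agonist mode: compounds alone added to overnight-plated D2 PathHunter cells for 90 min at 37 C, with 57 uM final dopamine (EC100) defining full response. Beta-arrestin recruitment detected by chemiluminescent reagent, read after 1 h at ambient temperature.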
Starred values were filed as active, the others as inactive; & = joins results of further samples; [ ] = another dose, or the depositor's remark.

How did Cc1ccc(S(=O)(=O)N2CCOC23CCN(C(=O)C(=O)NCc2ccccc2)CC3)cc1 do in these assays?
PINK1 expr mod: 0.3%; CtBP-E1A blk: 4; Six1-Eya2 blk: -4; D2 potentiator: -10; TRPML1 ag: -0.3; D2 ag: -4.8

Results for Cc1ccccc1CN(c1ccc(C(=O)N2CCc3ccccc3C2)cc1)S(C)(=O)=O ?
PINK1 expr mod: -19%[38.3 µM]; CtBP-E1A blk: -3; Six1-Eya2 blk: -6; D2 potentiator: -16; TRPML1 ag: -0.4; D2 ag: 0.1

Results for CS(=O)(=O)N1CCN(c2ccc([N+](=O)[O-])c(NCc3ccccc3)c2)CC1 ?
PINK1 expr mod: -2.5%; CtBP-E1A blk: -11; Six1-Eya2 blk: -21; D2 potentiator: -16; TRPML1 ag: 1.0; D2 ag: -5.7

How did Cc1ccc(C(=O)NCc2ccc3c(c2)OCO3)o1 do in these assays?
PINK1 expr mod: -1.3%; CtBP-E1A blk: 0; Six1-Eya2 blk: 12; D2 potentiator: 0; TRPML1 ag: -0.5; D2 ag: -2.3

Results for Cc1cc(C)nc(NS(=O)(=O)c2ccc(CC(C)C)cc2)c1 ?
PINK1 expr mod: 1.2%; CtBP-E1A blk: 2; Six1-Eya2 blk: 0; D2 potentiator: -8; TRPML1 ag: 0.1; D2 ag: -3.1

Results for CNc1nc(C)nc(-c2ccccc2O)n1 ?
PINK1 expr mod: 0.6%; CtBP-E1A blk: 7; Six1-Eya2 blk: -3; D2 potentiator: 2; TRPML1 ag: -0.5; D2 ag: -2.0

What do the screens show for `CC(C)OC(=O)/C(C#N)=C\c1cccnc1`?
PINK1 expr mod: -2.0%; Six1-Eya2 blk: 6; D2 potentiator: -13; TRPML1 ag: 0.3; D2 ag: 0.9

Results for CC(=O)c1ccc(NC(=S)NC(=O)Cc2ccc(Cl)cc2)cc1 ?
PINK1 expr mod: 11%; CtBP-E1A blk: 8; Six1-Eya2 blk: 9; D2 potentiator: 4; TRPML1 ag: 7.5; D2 ag: -2.8

Results for CC1CCCN(C(=O)C(=O)Nc2ccc3nc4n(c(=O)c3c2)CCCCC4)C1 (stereo not given) ?
PINK1 expr mod: -1.0%; CtBP-E1A blk: -11; Six1-Eya2 blk: -7; D2 potentiator: -4; TRPML1 ag: -0.8; D2 ag: -2.5

What do the screens show for `CC(=O)NC(c1ccccc1)c1cc([N+](=O)[O-])c2cccnc2c1O` (stereo not given)?
PINK1 expr mod: inconclusive; CtBP-E1A blk: -91*; Six1-Eya2 blk: -94*; D2 potentiator: -11; TRPML1 ag: 0.9; D2 ag: -1.7

How did Cc1nn(CC(=O)NCCC2=CCCCC2)c(C)c1S(=O)(=O)N(C)C do in these assays?
PINK1 expr mod: 0.3%; CtBP-E1A blk: 0; Six1-Eya2 blk: 7; D2 potentiator: -2; TRPML1 ag: -0.1; D2 ag: -5.2

What do the screens show for `O=C(CN1CCCCCC1)NCCN1C(=O)S/C(=C\c2ccccc2Cl)C1=O`?
PINK1 expr mod: -0.8%; CtBP-E1A blk: -9; Six1-Eya2 blk: -4; D2 potentiator: 0; TRPML1 ag: 0.0; D2 ag: -2.9

Results for C=CCSc1nnc(NC(=O)c2c(CC)noc2C)s1 ?
PINK1 expr mod: -0.7%; CtBP-E1A blk: 2; Six1-Eya2 blk: 0; D2 potentiator: 20; TRPML1 ag: -0.9; D2 ag: 0.8

How did CC(C)(CN1CCCC1)NS(=O)(=O)c1ccc(Cl)cc1 do in these assays?
PINK1 expr mod: -0.9%; CtBP-E1A blk: -4; Six1-Eya2 blk: -5; D2 potentiator: -10; TRPML1 ag: 1.5; D2 ag: -4.5

What do the screens show for `CC1CCCC(NC(=O)Cn2c(Cl)nc3c2c(=O)n(C)c(=O)n3C)C1C` (stereo not given)?
PINK1 expr mod: 3.8%; CtBP-E1A blk: -7; Six1-Eya2 blk: 1; D2 potentiator: -3; TRPML1 ag: 1.4; D2 ag: 2.8

How did O=S(=O)(NC1CCCCC1)c1ccc(-c2csnn2)s1 do in these assays?
PINK1 expr mod: 0.0%; CtBP-E1A blk: 3; Six1-Eya2 blk: 6; D2 potentiator: 0; TRPML1 ag: 1.4; D2 ag: 2.1

What do the screens show for `COC(=O)c1cc(NC(=O)c2ccc(OC)cc2)c(=O)oc1C`?
PINK1 expr mod: -0.1%; Six1-Eya2 blk: 5; D2 potentiator: -1; TRPML1 ag: 0.0; D2 ag: 1.0

How did CCOC(=O)c1cc2c(=O)n3ccccc3nc2n(Cc2ccco2)c1=NC(=O)c1ccc(OC)cc1OC do in these assays?
PINK1 expr mod: 0.4%; CtBP-E1A blk: 2; Six1-Eya2 blk: inconclusive; D2 potentiator: -1; TRPML1 ag: 6.0; D2 ag: 3.1

Results for COC(=O)C[C@H]1c2cc(C(F)(F)F)ccc2S(=O)(=O)N1Cc1ccccc1OC ?
PINK1 expr mod: -0.3%; CtBP-E1A blk: 1; Six1-Eya2 blk: 7; D2 potentiator: -2; TRPML1 ag: -0.2&-0.4; D2 ag: 4.2

What do the screens show for `CCOC(=O)c1c(C)oc2c1cc(O)c1ccccc12`?
PINK1 expr mod: -1.1%; CtBP-E1A blk: -2; Six1-Eya2 blk: 5; D2 potentiator: 58*; TRPML1 ag: 0.0; D2 ag: 8.6

What do the screens show for `COc1ccc(NC(=O)c2cncc(Br)c2)cc1S(N)(=O)=O`?
PINK1 expr mod: -0.2%; CtBP-E1A blk: 1; Six1-Eya2 blk: 6; D2 potentiator: -2; TRPML1 ag: -0.7; D2 ag: -1.9

What do the screens show for `O=C1c2ccccc2C(=O)N1c1nc2nccc(-c3ccccc3)n2n1`?
PINK1 expr mod: -1.3%; CtBP-E1A blk: -3; Six1-Eya2 blk: -3; D2 potentiator: -11; TRPML1 ag: 1.4; D2 ag: -3.2

What do the screens show for `Cc1noc(C)c1S(=O)(=O)N(CC(=O)NC1CCCC1)c1ccc(C(C)C)cc1`?
PINK1 expr mod: -0.3%; Six1-Eya2 blk: 11; D2 potentiator: -5; TRPML1 ag: 0.3; D2 ag: 0.1

How did O=C(NC(=S)N1CCN(Cc2ccccc2)CC1)c1ccco1 do in these assays?
PINK1 expr mod: -0.7%; CtBP-E1A blk: 5; Six1-Eya2 blk: 2; D2 potentiator: -3; TRPML1 ag: -0.1; D2 ag: 5.1

What do the screens show for `COc1ccc(-c2cc(C(F)(F)F)nc(SCC(=O)Nc3ccc4c(c3)OCO4)n2)cc1`?
PINK1 expr mod: 14%; CtBP-E1A blk: -6; Six1-Eya2 blk: 11; D2 potentiator: -10; TRPML1 ag: 0.9; D2 ag: -6.7

What do the screens show for `c1cncc(CNc2nc(N3CCOCC3)nc(N3CCOCC3)n2)c1`?
PINK1 expr mod: 3.6%[38.3 µM]; CtBP-E1A blk: 48; Six1-Eya2 blk: 31; D2 potentiator: -5; TRPML1 ag: -0.2; D2 ag: -3.6

How did COc1ccc(C(c2oc(CO)cc(=O)c2O)c2oc(CO)cc(=O)c2O)cc1 do in these assays?
PINK1 expr mod: -1.0%; CtBP-E1A blk: -6; Six1-Eya2 blk: -4; D2 potentiator: -1; TRPML1 ag: 0.2; D2 ag: -3.1

How did CC1(C)Cc2c(C#N)c(SCCO)nc(N3CCOCC3)c2CO1 do in these assays?
PINK1 expr mod: 2.5%; CtBP-E1A blk: -4; Six1-Eya2 blk: -9; D2 potentiator: -4; TRPML1 ag: -0.7; D2 ag: -1.2

Results for CCOc1ccccc1N1CC(C(=O)N2CCOCC2)CC1=O (stereo not given) ?
PINK1 expr mod: -0.9%; CtBP-E1A blk: 7; Six1-Eya2 blk: 4; D2 potentiator: -4; TRPML1 ag: 0.5; D2 ag: 1.9

Results for COc1ccc(-c2nnc(N3CCOCC3)c3ccccc23)cc1 ?
PINK1 expr mod: 2.0%; CtBP-E1A blk: 2; Six1-Eya2 blk: 0; D2 potentiator: 0; TRPML1 ag: 0.8; D2 ag: 4.5

The closing 3 entries of the part above lead into the next:
How did CC1(C)Cc2c(C#N)c(SCCO)nc(N3CCOCC3)c2CO1 do in these assays?
PINK1 expr mod: 2.5%; CtBP-E1A blk: -4; Six1-Eya2 blk: -9; D2 potentiator: -4; TRPML1 ag: -0.7; D2 ag: -1.2

Results for CCOc1ccccc1N1CC(C(=O)N2CCOCC2)CC1=O (stereo not given) ?
PINK1 expr mod: -0.9%; CtBP-E1A blk: 7; Six1-Eya2 blk: 4; D2 potentiator: -4; TRPML1 ag: 0.5; D2 ag: 1.9

Results for COc1ccc(-c2nnc(N3CCOCC3)c3ccccc23)cc1 ?
PINK1 expr mod: 2.0%; CtBP-E1A blk: 2; Six1-Eya2 blk: 0; D2 potentiator: 0; TRPML1 ag: 0.8; D2 ag: 4.5

Results for CCN(CC)C(=O)CSc1nc2ncc(Br)cc2[nH]1 ?
PINK1 expr mod: -1.4%; CtBP-E1A blk: -2; Six1-Eya2 blk: -5; D2 potentiator: -29; TRPML1 ag: 0.2; D2 ag: 0.2

Results for Cc1cc(Br)cn2c(Cc3ccccc3C(F)(F)F)c(-c3cccc(Br)c3)nc12 ?
PINK1 expr mod: -0.4%; CtBP-E1A blk: -14; Six1-Eya2 blk: 9; TRPML1 ag: -0.4

What do the screens show for `Cc1ccc(S(=O)(=O)N2CCCCC2)cc1NC(=O)c1ccco1`?
PINK1 expr mod: 1.6%; CtBP-E1A blk: -1; Six1-Eya2 blk: -4; D2 potentiator: -2; TRPML1 ag: -1.1; D2 ag: 0.6

Results for COc1ccccc1-c1c(C)nn2c(N)c(-c3ccc(Cl)cc3)cnc12 ?
PINK1 expr mod: 14%; CtBP-E1A blk: -13; Six1-Eya2 blk: 2; D2 potentiator: -23; TRPML1 ag: 0.7; D2 ag: -5.3

Results for COc1ccc(NC(=O)COc2ccc3c(c2)OCO3)cc1 ?
PINK1 expr mod: 1.2%; CtBP-E1A blk: -12; Six1-Eya2 blk: 0; D2 potentiator: 2; TRPML1 ag: 0.5; D2 ag: -1.3

Results for Cc1ccc(S(=O)(=O)N2CCCC(C(=O)NC3CC3)C2)cc1 (stereo not given) ?
PINK1 expr mod: -0.2%; CtBP-E1A blk: 4; Six1-Eya2 blk: 2; D2 potentiator: -12; TRPML1 ag: -0.1; D2 ag: -0.4

Results for O=C(OC(C(=O)NCc1ccc2c(c1)OCO2)c1ccc(Cl)cc1)c1ccco1 (stereo not given) ?
PINK1 expr mod: -0.2%; CtBP-E1A blk: -3; Six1-Eya2 blk: -3; D2 potentiator: -7; TRPML1 ag: 1.6; D2 ag: -0.8

What do the screens show for `CCN(CC(=O)Nc1ccc(NC(C)=O)cc1)C(=O)c1ccc(S(=O)(=O)N2CCCC2)cc1`?
PINK1 expr mod: -0.6%; CtBP-E1A blk: 3; Six1-Eya2 blk: 13; D2 potentiator: 2; TRPML1 ag: 0.0; D2 ag: -0.2

How did CN(CC(=O)Nc1cccc(F)c1)C(=O)c1ccc(OCc2cn3ccccc3n2)cc1 do in these assays?
PINK1 expr mod: 3.1%; Six1-Eya2 blk: -7; D2 potentiator: -6; TRPML1 ag: -1.6; D2 ag: -2.4
